VDR inh: vitamin D3 receptor (human) inhibition; P11473; VDR-SRC2-3 peptide fluorescence polarization, 2 h; Potency, µM, inactives show max response, negative = inhibition, actives largely listed as inhibitors; actives 0.93% (n = 400,000); active means well fitted inhibition curve with a large enough effect; inconclusive means small, poorly fitted or top-dose-only effect, or another doubt; inactive means no such curve, though single readings can be large or run the other way; further: series mostly up to about 120 µM
Target sequence (P11473 whole entry, looked up): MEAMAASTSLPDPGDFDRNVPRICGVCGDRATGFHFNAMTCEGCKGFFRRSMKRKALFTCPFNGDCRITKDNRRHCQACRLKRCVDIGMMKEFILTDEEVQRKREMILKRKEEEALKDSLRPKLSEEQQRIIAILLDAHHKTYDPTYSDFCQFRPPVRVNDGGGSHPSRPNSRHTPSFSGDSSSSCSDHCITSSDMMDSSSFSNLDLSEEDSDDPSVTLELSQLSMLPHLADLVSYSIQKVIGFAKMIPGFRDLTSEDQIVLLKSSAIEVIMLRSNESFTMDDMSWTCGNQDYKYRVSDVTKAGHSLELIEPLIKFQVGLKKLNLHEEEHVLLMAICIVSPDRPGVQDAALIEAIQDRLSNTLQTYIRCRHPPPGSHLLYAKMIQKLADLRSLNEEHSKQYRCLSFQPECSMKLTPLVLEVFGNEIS
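Compounds are added to VDR with labelled SRC2-3 coactivator peptide and held 2 h at room temperature. Inhibition of the VDR–peptide interaction is then read as a change in fluorescence polarization.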
Active calls of the source: *; ? = inconclusive; & = joins results of further samples; ! = not active in a repeat. On the % scale 0 is the no-effect control and ±100 the full control effect; potency means the concentration at half of the fitted maximal effect. Only part of the results is shown; rates above refer to the full screens.

no.	SMILES	VDR inh
1	CCOc1ccc2[nH]c(=O)c(C(c3nnnn3CC3CCCO3)N3CCc4ccccc4C3)cc2c1 (centres undefined)	22.7%
2	COc1ccc(C(=O)c2c3ccc(C(F)(F)F)cc3[n+]([O-])n2CCCC(N)=O)cc1	-2.7%
3	CCOC(=O)c1ccc(NC(=O)C23CCC(C)(C(=O)O2)C3(C)C)cc1 (centres undefined)	-12.0%
4	O=C(c1ccc(-c2ccccc2)c(F)c1)C1CCCN(CCCn2cccn2)C1 (centres undefined)	9.9%
5	Cc1cc(N=Nc2ccc(Cl)cc2)cc(CN2CCCC2)c1O	-16.4%
6	CCCCCN(C(=O)CCC(=O)OCCOc1ccc(OC)cc1)c1c(N)n(CCCC)c(=O)[nH]c1=O	-24.5%
7	O=C(NCC1COc2ccccc2O1)c1ccc(F)c(S(=O)(=O)N2CCOCC2)c1 (centres undefined)	-7.4%
8	CCN(CC(=O)Nc1cc(Cl)ccc1C)C(=O)C1CC(=O)N(Cc2ccccc2)C1 (centres undefined)	24.6%
9	COc1ccc(C(=O)Nc2ccccc2)cc1NC(=O)c1cccs1	0.6%
10	O=C(COc1cccc(C(F)(F)F)c1)NCCCN1CCCC1=O	12.6%
11	c1ccc(-c2nnc3sc(CN4CCc5ccccc54)cn23)cc1	-22.8%
12	C=CCSc1nc2c(c(C3CC=CCC3)c1C#N)CCC2 (centres undefined)	1.0%
13	CCCCn1c(/N=C/c2ccc3c(c2)OCO3)nc2ccccc21	-0.7%
14	N#Cc1ccc(OCC(=O)NCC(c2cccs2)N2CCOCC2)cc1 (centres undefined)	1.6%
15	CC1=CC(=O)CC2C1(C)CCC(C)C2(C)CCC(C)CC(=O)O (centres undefined)	4.6%
16	CN(C)CCC1(c2ccc(Cl)cc2)Cc2ccccc2C(=O)O1 (centres undefined)	1.1%&-4.0%
17	COC(=O)[C@H](C)NC(=O)NCc1ccc(S(N)(=O)=O)cc1	-1.2%
18	O=C(NC1CC1)c1nc(Cn2cc([N+](=O)[O-])cn2)no1	-24.3%
19	COc1ccccc1OCC(=O)Nc1ccccc1C(=O)N1CCCCC1	-7.3%
20	CCOC(=O)COc1ccc(S(=O)(=O)N2CCN(c3ccccc3F)CC2)cc1	9.2%
21	CCOc1ccc(C(=O)NCCCN(CC)CC)cc1	9.3%
22	CC(=O)NC1C(=O)Nc2c(C)cc(C)cc21 (centres undefined)	2.0%
23	Cc1nc2ccc(S(=O)(=O)NCC(=O)N3CCOCC3)cc2s1	-10.6%
24	CCC(=O)Nc1ccccc1-c1nnn(CC(=O)N2c3ccccc3CC2C)n1 (centres undefined)	11.9%
25	C[C@H](N)C(=O)N[C@@H](CO)C(=O)N[C@H](C(=O)N[C@H](C(=O)N[C@H](C(=O)N[C@@H](CC(N)=O)C(=O)N[C@@H](Cc1ccc(O)cc1)C(=O)N[C@H](C(=O)O)[C@@H](C)O)[C@@H](C)O)[C@@H](C)O)[C@@H](C)O	2.0%
26	CCOC(=O)N1CCN(C(=O)COC(=O)c2cc(C)ccc2C)CC1	-8.3%
27	COc1ccccc1NC(=S)N1CCN(c2ccc(F)cc2)CC1	-16.2%
28	CCOC(=O)CSc1nnc(NC(=O)c2ccc3c(c2)OCO3)s1	-7.3%
29	COc1ccccc1N1CCN(c2nc(N)c(C#N)c(CC#N)c2C#N)CC1	6.2%
30	O=c1[nH]n2cc(-n3cc([N+](=O)[O-])cn3)cnc2c1Br	-4.9%
31	CC(C)=CCC1=C(OCC(=O)O)C(=O)c2ccccc2C1=O	?
32	COc1cccc2cc(C(=O)CS(=O)(=O)c3ccc(C(C)(C)C)cc3)c(=O)oc12	-7.7%
33	COc1ccc(-c2cc3onc(-c4c(Cl)cccc4Cl)c3c(=O)n2C)cc1	-8.3%
34	O=C(NCc1ccc2c(c1)OCO2)C1CC(c2cccc(Br)c2)=NO1 (centres undefined)	4.5%
35	COc1ccc(N2CC(C(=O)Nc3ccncc3)CC2=O)cc1 (centres undefined)	5.6%
36	CN1/C(=C\C(=S)NC(=O)c2cccc(Br)c2)C(C)(C)c2ccccc21	-21.5%
37	COc1ccc(-c2nc3nc(SC)nn3cc2C)cc1F	-23.3%
38	COc1ccccc1NS(=O)(=O)c1cccc(C(=O)N/N=C/c2c(C)nn(-c3ccccc3)c2N2CCCC2)c1	-16.4%
39	O=C(Nc1ccc(C(=O)N2CCOCC2)cc1)c1cccc(Br)c1	-2.0%
40	O=C(CCS(=O)(=O)c1ccccc1)NC1CCCCC1	0.2%

Down the list, quoted from above:
Entries 6–13 in VDR inh: -24.5%, -7.4%, 24.6%, 0.6%, 12.6%, -22.8%, 1.0%, -0.7%

New compounds follow
no.	SMILES	VDR inh
41	CCCC(=O)Nc1cc(-c2nnc3c4ccccc4c(C)nn23)ccc1C	4.6%
42	O=C(Nc1ccc(Cl)cc1[N+](=O)[O-])c1ccc2c(c1)OCCO2	-23.7%
43	Cc1cc(N=Nc2ccccc2)c(NCC(O)C(O)C(O)CO)cc1C (centres undefined)	-14.6%
44	CCC(=O)Nc1ccc(C(=O)Nc2cccc(OC)c2)cc1	2.0%
45	CN(C(=O)c1ccc(NC(=O)Cc2ccc(NC(=O)C3CCN(C(=O)CCc4ccccc4)CC3)cc2)cc1)C1CC1	-5.3%
46	CCOc1ccc(N2CC(C(=O)NCCCN3CCOCC3)CC2=O)cc1 (centres undefined)	5.9%
47	Cc1cc(=O)n(C)c(=O)n1CCCCOc1ccc([N+](=O)[O-])cc1	-2.9%
48	Cn1c(NC(=O)C2c3ccccc3Oc3ccccc32)cc(=O)n(C)c1=O	9.4%
49	Cc1ccc(C2=NN=C(NC(=O)CSc3nnc4c5ccccc5n(C)c4n3)SC2)cc1	?
50	COc1cccc(NC(=O)CSc2nc3c(c(-c4ccco4)c2C#N)CCCC3)c1	1.0%
51	Fc1ccc2nc(Nc3nc4c(F)cccc4s3)sc2c1	-13.7%
52	CSc1ccccc1NC(=O)COC(=O)c1ccc(-n2nc(C)cc2C)cc1	2.3%
53	C/C(=N\NC(=O)c1ccc(CSc2nc(C)cc(C)n2)cc1)c1ccco1	5.4%
54	Cc1nc(N)sc1-c1csc(Nc2ccccc2)n1	?
55	CCCCC(CCC(=O)Nc1ccc(C(=O)OCC)cc1)C(=O)O (centres undefined)	-16.5%
56	CCOC(=O)c1sc(NNC(=O)c2ccc(C)cc2)nc1C	18.1%
57	C/C(CC(=O)Nc1ccc(Br)cc1)=N\NC(=O)c1cccc(O)c1	-0.8%
58	O=C(Nc1cccc(/C=C/c2nc3ccccc3c(=O)[nH]2)c1)c1ccccc1Cl	-3.4%
59	CCOc1ccc(S(=O)(=O)N(CC)CC)cc1NC(=O)CSCc1c(C)noc1C	-9.9%
60	O=C(NCCCn1ccnc1)c1cccc(S(=O)(=O)NCc2ccccc2)c1	-7.0%

More records.
item	Compound	VDR inh
61	Cc1ccc(S(=O)(=O)N2CCN(C(=O)CSc3n[nH]c(N)n3)CC2)c(C)c1	6.0%
62	O=C(CCS(=O)(=O)c1ccc(Br)cc1)NCc1ccco1	-15.0%
63	O=c1cnc2cnc(Nc3ccccc3)nc2n1CCc1ccccc1	3.7%
64	CCOc1ccc(CNC(=O)c2cc(=O)[nH]c3ccc(S(=O)(=O)N4CCCCC4)cc23)cc1	6.6%
65	Nc1nonc1-n1nnc(C(=O)N/N=C/c2c(F)cccc2Cl)c1-c1ccc2c(c1)OCO2	-18.2%
66	COc1cccc(NC(=S)N(CCN(C)C)C(C)c2ccco2)c1 (centres undefined)	1.3%
67	O=C(c1ccc([N+](=O)[O-])cc1)N1CCN(C(=O)c2cccs2)CC1	-20.5%
68	Cc1cc(=O)oc2cc(OCC(=O)Nc3ccc(CN4CCOCC4)cc3)ccc12	-1.8%
69	CCCCCc1c(C)nc(Nc2ccc(F)cc2)[nH]c1=O	3.9%
70	O=C(N/C=N/O)C(c1ccccc1)c1ncc(C(F)(F)F)cc1Cl (centres undefined)	-10.8%
71	COc1ccc(Cl)cc1NC(=O)c1nnn(CC(=O)Nc2ccc3c(c2)OCO3)c1N	-11.7%
72	COc1cc2cnc(C3=CCCCC3)cc2cc1OC	-3.3%
73	O=C(N/N=C/c1ccco1)C1COc2ccccc2O1 (centres undefined)	7.2%
74	CC1CN(C(=O)C(C)Sc2nc3ccccc3s2)CC(C)O1 (centres undefined)	2.1%
75	CC(C)CC(COCc1ccc(Cl)cc1)N1CCN(C(=O)c2cccc(C(F)(F)F)c2)CCC1=O (centres undefined)	-6.2%
76	COc1ccc(OC)c(-n2c3c(cc(-c4nc(-c5ccc(Cl)cc5)cs4)c2=O)C(=O)CC(C)(C)C3)c1	-15.6%
77	O=C(N/N=C\c1ccccc1O)c1ccccc1O	-1.4%
78	COc1cc(Cl)c(C)cc1NC(=O)c1nn(C)c2c1CSc1ccccc1-2	17.8%
79	N#Cc1ccc(S(=O)(=O)N2CCC(C(=O)Nc3cccc(C(=O)NC4CC4)c3)CC2)cc1	10.1%
80	NC(=O)c1cc(-c2ccccc2)sc1NC(=O)Cc1ccc(S(=O)(=O)N2CCOCC2)s1	-17.6%
81	CN1CCCC(CN2c3ccccc3Sc3ccccc32)C1 (centres undefined)	-5.6%&-12.8%
82	Cn1c(SCc2nc(-c3ccccc3)no2)nnc1-c1cccs1	-2.7%
83	O=C(O)/C=C/C(=O)c1ccc(O)cc1	?
84	O=C1CC(c2nc(-c3ccccc3)no2)CN1c1ccc2c(c1)OCCO2 (centres undefined)	14.5%
85	NC(=O)C1CCN(CC(=O)Nc2cccnc2Cl)CC1	5.0%
86	CC/C=C\C/C=C\C/C=C\CCCCCCCC(=O)O	22.4µM*!
87	CCN(CC)C(=O)C(=O)c1cn(CCOc2ccccc2)c2ccccc12	-5.4%
88	CCC(C(=O)NC1CCCCC1)n1c2ccccc2c2nc(=O)cc(C)n21 (centres undefined)	-13.4%
89	CN(Cc1ccccc1)C(=O)COc1cc(Cl)ccc1Cl	-3.8%
90	Cc1c(C(=O)OC/C(O)=C(\C#N)c2nc3ccccc3[nH]2)oc2ccc(Br)cc12	12.7%
91	O=C(Nc1nnc(CSCc2ccccc2F)s1)c1cccc([N+](=O)[O-])c1	-10.6%
92	O=C(C1=C[C@@H](c2ccc(C(F)(F)F)cc2)C[C@@H](OCc2ccc(CO)cc2)O1)N1CCN(Cc2ccc3c(c2)OCO3)CC1	-0.5%
93	CC(C)(C)N1C(=O)[C@H]2[C@@H](c3ccc(Br)cc3)N3C(=O)N(c4cccc(F)c4)C(=O)[C@@]3(C)[C@H]2C1=O	-2.4%
94	CC(C)NC(=O)C(=O)Nc1cc2c3c(c1)CCC(=O)N3CCC2	-4.0%
95	COC(=O)c1ccc(NC(=O)CCCCCn2nnc3ccccc3c2=O)cc1	9.4%
96	Cc1cn(C2CCCCO2)c(=O)nc1NO (centres undefined)	6.8%
97	Cc1cc(C)nc(N2CCCC(C(=O)NNC(=O)c3ccncc3)C2)n1 (centres undefined)	8.5%
98	Cc1cc(NC(=O)c2c(F)c(F)c(F)c(F)c2F)no1	3.9%
99	Cc1ccc2c(c1)C(=C(C#N)C#N)C(=O)N2CCN1CCCCC1	12.1%
100	CCOC(=O)c1c(N)n(-c2ccc(C)c(Cl)c2)c2nc3ccccc3nc12	7.1%
101	CCOC(=O)c1cccc(NC(=O)c2ccc3nc(CCc4ccccc4)oc3c2)c1	-3.0%
102	COc1ccc2nc(NC(=O)c3nc(SCc4ccc(F)cc4)ncc3Cl)sc2c1	-3.6%
103	CCOc1cccc2sc(N(Cc3cccnc3)C(C)=O)nc12	1.9%
104	COc1ccccc1CNC(=O)c1ccc(CS(=O)Cc2cccc(Cl)c2)o1 (centres undefined)	-3.9%
105	COC(=O)c1cn(-c2ccccc2)nc1C(=O)OC	5.7%

Seven structures out of the list, arranged by count of non-hydrogen atoms, high to low:
item	Compound	VDR inh
93	CC(C)(C)N1C(=O)[C@H]2[C@@H](c3ccc(Br)cc3)N3C(=O)N(c4cccc(F)c4)C(=O)[C@@]3(C)[C@H]2C1=O	-2.4%
101	CCOC(=O)c1cccc(NC(=O)c2ccc3nc(CCc4ccccc4)oc3c2)c1	-3.0%
102	COc1ccc2nc(NC(=O)c3nc(SCc4ccc(F)cc4)ncc3Cl)sc2c1	-3.6%
100	CCOC(=O)c1c(N)n(-c2ccc(C)c(Cl)c2)c2nc3ccccc3nc12	7.1%
103	CCOc1cccc2sc(N(Cc3cccnc3)C(C)=O)nc12	1.9%
98	Cc1cc(NC(=O)c2c(F)c(F)c(F)c(F)c2F)no1	3.9%
96	Cc1cn(C2CCCCO2)c(=O)nc1NO (centres undefined)	6.8%

Next results follow:
item	Compound	VDR inh
106	CCC(=O)Nc1nnc(SCC(=O)c2ccc3c(c2)Cc2ccccc2-3)s1	-5.3%
107	Cc1c(/C=N/NC(N)=O)c2ccccn2c1C(=O)c1ccc(F)cc1	-25.2%
108	COC(=O)c1sc(NC(=O)c2ccc(OC)cc2OC)nc1C	-2.4%
109	CCc1cccc(NC(=O)CN2C(=O)CCc3cc(S(=O)(=O)N4CCOCC4)ccc32)c1	6.3%
110	CC1=C(c2ccc(C(C)C)cc2)S(=O)(=O)N=C1N1CCN(c2ccc(F)cc2)CC1	19.2%
111	CCCCNC(=O)c1c[nH]c2ccc(S(=O)(=O)Nc3ccc(OCC)cc3)cc2c1=O	-3.9%
112	O=C(O)C(O)c1ccco1 (centres undefined)	-14.0%
113	COc1ccc(N(C)S(=O)(=O)c2cccc(C(=O)OC(C(=O)Nc3cc(C)cc(C)c3)c3ccccc3)c2)cc1 (centres undefined)	-8.1%
114	O=C(CN1C(=O)CSc2ccc(S(=O)(=O)N3CCCC3)cc21)NCc1ccc(Cl)cc1	4.8%
115	O=C(Nc1ccc2nc(-c3ccco3)c(-c3ccco3)nc2c1)N1CCN(c2ccccn2)CC1	89.1µM*
116	CCOc1ccc(C(=O)NCCC(=O)N2CCC3(CC2)NCCc2[nH]cnc23)cc1OCC	-0.2%
117	O=C(CSCc1c(Cl)cccc1Cl)NN1C(=O)c2ccccc2C1=O	-12.9%
118	CC1(C(=O)c2ccccc2)C2c3c(ccc4ccccc34)OC(=O)C21C(=O)N1CCOCC1 (centres undefined)	15.7%
119	COc1ccc(CCNC(=O)COC(=O)CCC(=O)c2cccs2)cc1OC	13.6%

High-throughput results: PubChem BioAssay, National Center for Advancing Translational Sciences (NCATS)
